Screening data deposited in PubChem BioAssay by National Center for Advancing Translational Sciences (NCATS).
2A firefly: FMDV 2A StopGo reporter, firefly signal | HEK cells with a luciferase reporter of 2A StopGo recoding | Potency, µM (top dose mostly 57.5 µM), for the others: top-dose signal change, negative = less light | hit rate 0.23% among 120,000; active = well fitted falling curve with a large enough effect; inconclusive = small, poorly fitted or top-dose-only effect; inactive = no such curve, though single readings can be large or run the other way; further: nearly all actives have a fitted effect of over 60% in size; overnight with compound
StopGo RLuc: lowers the Renilla signal of an FMDV 2A StopGo reporter | HEK cells with a luciferase reporter of 2A StopGo recoding | Potency, µM (highest dose often 57.5 µM), for inactives: at the highest dose signal change, negative = less light | hit rate 0.32% among 120,000 | AID 1745857; active means well fitted falling curve with a large enough effect; inconclusive means small, poorly fitted or top-dose-only effect; inactive means no such curve, though single readings can be large or run the other way; further: nearly all actives have a fitted effect of over 55% in size; overnight with compound
Numbers without * were called inactive; u = inconclusive; & = joins results of further samples; [ ] = another dose, or the depositor's remark. On the % scale 0 is the no-effect control and ±100 the full control effect; potency means the concentration at half of the fitted maximal effect.

SMILES	2A firefly	StopGo RLuc
CNC(=O)c1ccc(CN(C(=O)c2ccc(C(C)=O)s2)C2CC2)cc1	11%	-7%[1.06 µM]
COc1ccc2c(c1)c1c(c(=O)n(Cc3ccccc3)c(=O)n1CC(=O)Nc1ccccc1F)n2C	10%	-9%
CC1COCCN1C(=O)Cc1n[nH]c(=O)c2ccccc12 (stereo not drawn)	3%	-2%
NC(=O)C1CCN(C(=O)c2ccc(NC(=O)c3nsc4ccccc34)cc2)CC1	-31%	30%
CCOC(=O)c1c(S(=O)(=O)Nc2cc(C)ccc2OC)c(C)n(C)c1C	11%	155%[activator]
Brc1ccc(Oc2nc(-c3ccccc3)cs2)cc1	284%[activator]	16%
NCCCN1CCN(Cc2ccccc2)CC1	-9%	-7%
O=C(Nc1nn(Cc2ccc(Cl)c(Cl)c2)cc1Br)c1nc2ncccn2n1	11%	-1%
CCOc1ccc(Cl)cc1C1CC(=O)Nc2cc(OC)c(OC)c(OC)c21 (stereo not drawn)	1%	12%
CCCOc1ccc(C2C(=O)N(C3CCCCCC3)CC(=O)N2CCC2=CCCCC2)cc1OC (stereo not drawn)	-5%	-9%
CCc1cccc(-n2c(SCC(=O)NC(C)c3cc4ccccc4o3)nnc2N2CCOCC2)c1 (stereo not drawn)	1%	8%
CCC(NC(=O)c1cccs1)c1ccccc1 (stereo not drawn)	3%	3%
Fc1ccc(-n2ncc3c(NC4CCCCCC4)ncnc32)cc1	165%[activator]	14%&13%
COc1ccc2[nH]cc(CCNC(C)=O)c2c1	-7%	-2%
O=[N+]([O-])c1ccc(/C=N/O)s1	4%	-3%
O=C(O)CN(CCCc1ccccc1)CC(=O)O	-10%	0%
COc1ccc2c(c1)c1c(c(=O)n(CCc3ccccc3)c(=O)n1Cc1cccc(C)c1)n2C	5%	-8%
COCCn1ccc2c(OCC(=O)Nc3cccc(C)c3C)cccc2c1=O	6%	3%
Cc1cc(NC(=O)NCC(c2cccs2)N2CCOCC2)no1 (stereo not drawn)	0%	-12%
NC(=O)c1cc(S(=O)(=O)NCC2CCC(C(=O)Nc3ccc(Cl)cc3)CC2)cs1 (stereo not drawn)	-18%	-8%
O=c1nc2n(-c3ccc(Cl)c(Cl)c3)c3cc(Cl)ccc3cc-2c(=O)[nH]1	0%	68%[activator]
COc1ccc(OC)c(C2CC(=O)Oc3c2c(=O)n(C)c2ccccc32)c1 (stereo not drawn)	0%	-1%
O=C(NCCc1ccccc1Cl)c1ccc2c(c1)nc1n2CCCCC1	u	-1%
Cc1c(C(=O)N2CCN(c3ccccc3)CC2)oc2c1C(=O)CCC2	16%	-7%
COc1ccc(S(=O)(=O)N2CCC(C(=O)Nc3ccccc3)CC2)cc1OC	-20%	5%
CCCc1nc2sc3c(N4CCC(C)CC4)ncnc3c2c2c1CCCC2	-13%	9%
N#CCCc1c(O)ccc2ccccc12	22%	8%
CC1CCC(N(C)C(=O)c2nn(-c3ccccc3)c(=O)c3ccccc23)CC1 (stereo not drawn)	9%	25%
Cn1c(=O)c2c(nc(NCCO)n2Cc2cccc(C(F)(F)F)c2)n(C)c1=O	u	10µM*
O=C(Cn1cc(C(=O)c2cccs2)c2ccccc21)Nc1ccc(Br)cc1	24%	-6%
CCC1CN(C(=O)CCc2ncc(-c3ccc(Cl)cc3)o2)CCO1 (stereo not drawn)	19%	-4%
Cc1cccc(C)c1OCc1nc2c3cnn(-c4ccccc4Br)c3ncn2n1	20%	-12%
CCCCCn1c(=O)[nH]c2cc(C(=O)Nc3ccc(F)cc3)ccc2c1=O	-12%	-7%
O=C(COc1ccccc1Cl)Nc1ccc2nc(SCC(=O)N3CCCC3)sc2c1	-1%	-3%
Cc1cccc(C)c1NC(=O)CSc1nnc(COc2ccccc2)n1Cc1ccco1	-10%	32%[activator]
O=C(CN1CCN(c2ccccc2)CC1)Nc1oc2ccccc2c(=O)c1-c1ccc(F)cc1	-2%	-15%
Cc1ccc2c(=O)cc(C(=O)Nc3ccc(S(=O)(=O)N4CCCCCC4)cc3)oc2c1	0%	1%
COc1ccc(S(=O)(=O)NCCc2sc3nc(-c4ccc(C)cc4)nn3c2C)cc1F	u	-29%
Cc1cc(=O)oc2c(C)c(OCC(=O)NCCCN3CCOCC3)ccc12	-17%	-26%
Cc1ccc(C(=O)C(C)OC(=O)c2cccs2)cc1 (stereo not drawn)	180%[activator]	10%
CC1CCCCN1CCCNC(=O)Cn1ncc2c3ccccc3n(Cc3ccccc3)c2c1=O (stereo not drawn)	-7%	-11%
Cc1cc(C(=O)N2CCN(S(=O)(=O)c3ccc(F)cc3)CC2)c(C)n1Cc1ccco1	-13%	-12%
CCOc1ccccc1CNC(=O)Cn1c(-c2ccccc2)cc(C(C)=O)c1C	-2%	-3%
CCc1ccc(S(=O)(=O)Nc2ccc3c(c2)n(C)c(=O)c(=O)n3C)cc1	18%	33%[activator]
Cc1ccc(C(=O)Nc2nc3ccc(S(=O)(=O)N4CCCC4)cc3s2)cc1	11%	19%
Cc1nnc2ccc(SCC(=O)Nc3ccc(Cl)cc3)nn12	10%	16%
O=c1c2cc(Cl)ccc2ncn1CC(O)COc1ccc(Br)cc1 (stereo not drawn)	-3%	-13%
O=C(/C=C/c1ccc(Oc2ccccc2)cc1)c1ccc(N2CCOCC2)cc1	0%	-7%
Cc1cc(=O)oc2cc(OCC(=O)NC(C)(C#N)C3CC3)ccc12 (stereo not drawn)	-4%	-13%
O=c1oc2ccccc2c(N2CCN(c3ccc(F)cc3)CC2)c1CN1CCCC1	-12%	-6%
More compounds follow.
SMILES	2A firefly	StopGo RLuc
COc1ccc(C2=NN3C(C2)c2cccc(OC)c2OC32CCN(C(C)=O)CC2)c(OC)c1 (stereo not drawn)	171%[activator]	-23%
Cc1ccc(-c2csc(NC(=O)c3cnc4c(cnn4C(C)C)c3)n2)cc1C	11µM*	u
CCCc1ccc(C(=O)Cn2nnc(-c3ccccc3Br)n2)cc1	-2%	16%
CCOc1ccc(NC(=O)Cn2c(=O)oc3cc(S(=O)(=O)N4CCC(C)CC4)ccc32)cc1	u	32%[activator]
CN(C)C(=O)C(Sc1nnc(-c2ccncc2)n1-c1ccc(Cl)cc1)c1ccccc1 (stereo not drawn)	-4%	-9%
C#CCOc1c(Cl)cc(/C=C/C(=O)c2ccc(OCC(=O)O)cc2)cc1OC	-14%	u
Cc1ccc2c(c1)N(C(=O)Nc1cccc3c1CCCC3)CCO2	-10%	-5%
COc1ccc(/C=C(\C#N)C(=O)Nc2ccccc2C(=O)O)c(OC)c1	32%[activator]	u
CCCCNc1nc2c(c(=O)[nH]c(=O)n2C)n1Cc1ccccc1Cl	11%	3%
CCOC(=O)c1cnc2c(Cl)c(Cl)ccc2c1Nc1ccc(N(C)C)cc1	-8%	-8%
O=C(c1cc(=O)c2ccccc2o1)N1CCC(CCN2CCCCC2)CC1	-7%	-13%
CCOc1ccc(CNC(=O)c2ccc3c(c2)nc2n3CCCCC2)cc1	90%[activator]	-17%
O=C(O)c1cccc(NCc2ccc(F)cc2)c1	0%	-6%[1.06 µM]
Cc1cc(C)cc(NC(=O)c2cccc(C(=O)Nc3cc(C)cc(C)c3)c2)c1	-8%	-9%
CC(C)NC(=O)NC(=O)CN(C)C(C)C(C)(C)C (stereo not drawn)	13%	9%
Cc1ccc(Cl)cc1N1CCN(C(=O)Cn2nc(C)n3c(cc4sccc43)c2=O)CC1	0%	-11%
COCCn1cnc2c1c(=O)n(Cc1ccc(C(N)=O)cc1)c(=O)n2CC(C)C	-3%	-5%
O=C(Nc1ccc(F)cc1F)c1cccc(C(=O)Nc2ccc(F)cc2F)n1	-2%	-7%
Cc1cc(OC(C)C(=O)NCc2ccncc2)c2c(C)c(C)c(=O)oc2c1 (stereo not drawn)	2%	9%
CCc1ccc(C(=O)COC(=O)CNC(=O)c2ccccc2)cc1	-3%	3%
Cc1cc(/C=C(/C#N)c2ccccn2)c(C)n1C1CC1	237%[activator]	17%
CCCOc1ccc(OCC(=O)NC2CCc3ccccc32)cc1 (stereo not drawn)	10%	64%[activator]
NS(=O)(=O)c1ccc(CCNc2nccn(-c3cccc(C(F)(F)F)c3)c2=O)cc1	8%	6%
Cc1cccc(C(C)C)c1NC(=O)COC(=O)c1ccc2ccccc2n1	-1%	-2%
Cc1cc(C)cc(NC(=O)N2CCCC2c2ccco2)c1 (stereo not drawn)	21%	9%
COc1ccc2[nH]cc(C(C(=O)O)N3CCC(C)CC3)c2c1 (stereo not drawn)	3%	-4%
CC(=O)NCCNC(=O)CCCc1nnc2n(C)c(=O)c3sccc3n12	-20%	-12%
CCOC(=O)c1ccccc1NC(=O)Cn1c(=O)n(CCC(=O)NCc2ccccc2OC)c(=O)c2ccccc21	-22%	-12%
CCOc1ccc(NC(=O)Nc2c(NC3CCCCC3)c3ccccc3oc2=O)cc1	-8%	35%[activator]
Cc1ccc(CN2C(C(=O)NC3CCCC3)CSCCS2(=O)=O)cc1 (stereo not drawn)	-13%	21%
CCOC(=O)c1ccc(NC(=O)c2sc3nc4n(c(=O)c3c2C)CCC4)cc1	-14%	-17%
Cc1nn(CN2CCN(S(=O)(=O)c3ccc(C(C)C)cc3)CC2)c(=O)c2ccccc12	1%	-2%
O=C(CN1CCCC1c1nc2ccccc2s1)NC(=O)Nc1ccc2c(c1)OCO2 (stereo not drawn)	9%	-5%
CC(=O)N(C)CCCNC(=O)c1nc2ccccc2c(=O)[nH]1	144%[activator]	9%
O=C(Nc1nonc1-c1ccc2c(c1)CCCC2)c1cccs1	u	-28%
COc1cc(C(=O)N2CCOCC2)cc(OC)c1OC	-18%[11.5 µM]	-2%
CCOC(=O)Cn1c(=O)n(C2CCCCC2)c2nc(-c3cccc(F)c3)nc(C(N)=O)c21	13%	6%
O=C(NCCc1ccccc1)c1cc(S(=O)(=O)N2CCCCC2)c[nH]1	20%	61%[activator]
CCn1cc2nc(SCc3cccc(F)c3)n(CCc3ccccc3)c(=O)c2n1	u	u
CCOC1OC(COC(C)=O)C(OC(C)=O)C(OC(C)=O)C1NC(C)=O (stereo not drawn)	2%	-7%
Cc1cccc(CN2CCc3nc(N4CCN(c5ccccn5)CC4)ncc3C2)c1	u	u
COc1c(C)cccc1C(=O)Nc1ccc(O)c(-c2nc3ccccc3o2)c1	2%	-4%
Cc1ccc2oc(=O)cc(N3CCOCC3)c2c1	10%	8%
Fc1ccccc1NC(=S)NCCc1ccc(C(F)(F)F)cc1	12%	45%[activator]
Cn1c(=O)cc(SCC(=O)Nc2cccc(C#N)c2)c2ccc(Cl)cc21	-22%	-20%
CC(=O)N(c1cccc(C)c1)c1nc(COc2ccccc2C(N)=O)cs1	16%	4%
CC1CN(C(=O)Nc2ccc(C(=O)NCCc3ccccc3Cl)cc2)c2ccccc2S1 (stereo not drawn)	43%[activator]	-9%
Cc1cc(C)c(NS(=O)(=O)c2ccc3c(c2)CC(C)N3C(=O)C2CCC2)c(C)c1 (stereo not drawn)	u	u
Cc1ccc(C)c(Nc2nnc(-c3ccc(C)c(S(=O)(=O)N4CCN(C)CC4)c3)c3ccccc23)c1	-3%	-3%
CCc1nc2ccccc2c(NC(=O)CN(C)C)c1C	5%	-8%

Another view of 14 compounds above:
| structure | 2A firefly | StopGo RLuc |
| --- | --- | --- |
| COc1cc(C(=O)N2CCOCC2)cc(OC)c1OC | -18%[11.5 µM] | -2% |
| CCOC(=O)Cn1c(=O)n(C2CCCCC2)c2nc(-c3cccc(F)c3)nc(C(N)=O)c21 | 13% | 6% |
| O=C(NCCc1ccccc1)c1cc(S(=O)(=O)N2CCCCC2)c[nH]1 | 20% | 61%[activator] |
| CCn1cc2nc(SCc3cccc(F)c3)n(CCc3ccccc3)c(=O)c2n1 | u | u |
| CCOC1OC(COC(C)=O)C(OC(C)=O)C(OC(C)=O)C1NC(C)=O (stereo not drawn) | 2% | -7% |
| Cc1cccc(CN2CCc3nc(N4CCN(c5ccccn5)CC4)ncc3C2)c1 | u | u |
| COc1c(C)cccc1C(=O)Nc1ccc(O)c(-c2nc3ccccc3o2)c1 | 2% | -4% |
| Cc1ccc2oc(=O)cc(N3CCOCC3)c2c1 | 10% | 8% |
| Fc1ccccc1NC(=S)NCCc1ccc(C(F)(F)F)cc1 | 12% | 45%[activator] |
| Cn1c(=O)cc(SCC(=O)Nc2cccc(C#N)c2)c2ccc(Cl)cc21 | -22% | -20% |
| CC(=O)N(c1cccc(C)c1)c1nc(COc2ccccc2C(N)=O)cs1 | 16% | 4% |
| CC1CN(C(=O)Nc2ccc(C(=O)NCCc3ccccc3Cl)cc2)c2ccccc2S1 (stereo not drawn) | 43%[activator] | -9% |
| Cc1cc(C)c(NS(=O)(=O)c2ccc3c(c2)CC(C)N3C(=O)C2CCC2)c(C)c1 (stereo not drawn) | u | u |
| Cc1ccc(C)c(Nc2nnc(-c3ccc(C)c(S(=O)(=O)N4CCN(C)CC4)c3)c3ccccc23)c1 | -3% | -3% |

Going on with the list.
SMILES	2A firefly	StopGo RLuc
CCN1CCN(C(=O)CN2C(=O)c3cccnc3Oc3ccc(Cl)cc32)CC1	0%	-3%
Cc1ccccc1NC(=O)N1CCN(C(=O)c2nsc3ccccc23)CC1	-6%	-9%
N#Cc1ccc(Oc2ccc(-c3ccc(Oc4ccc(C#N)cc4)cc3)cc2)cc1	6%	1%
Cn1c(=O)c2nc(SCC(=O)Nc3ccc(F)c(Cl)c3)n(C)c2n(C)c1=O	8%	10%
COc1ccccc1CNC(=O)CN1C(=O)CSc2ccc(S(=O)(=O)N3CCCCC3)cc21	-2%	0%
COc1ccc(C(C(=O)Nc2ccc(C(C)C)cc2)N(C)C(=O)Cc2cccs2)cc1 (stereo not drawn)	9%&3%	20%&19%
O=C(Nc1cc(S(=O)(=O)N2CCCCC2)ccc1N1CCCCC1)c1cc(=O)c2ccccc2o1	28%	7%
CCOCCCNC(=O)C1CCCCC1	5%	1%
COc1ccc(CNC(=O)c2cc(-c3ccc(C)cc3)nc3n[nH]c(-c4ccc(Br)cc4)c23)cc1	-14%	2%
